Assay outcomes (PubChem)
TRPV1 PAM: potentiators of human vanilloid receptor 1 (TRPV1); Q8NER1; TRPV1-expressing cells, Fluo-8 calcium influx, capsaicin EC20 potentiation; host cell line not named in the record; control for the full effect not named in the record; potentiation, % at 8.33 µM; 320,000 compounds, 0.02% hits; active means potentiation above 80%; inconclusive means 30% to 80%; inactive means below 30%; also: 0% is about no effect
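Cells expressing TRPV1 were dye-loaded with Fluo-8 and read kinetically: 10 s baseline, 3 min after compound (agonist portion), then 2 min after EC20 capsaicin (allosteric enhancer portion). Calcium-bound dye fluorescence at 480/520 nm.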
Sfp PPTase inh: inhibitors of Bacillus subtilis Sfp phosphopantetheinyl transferase; Potency, µM, without a hit: max response, negative = inhibition, actives largely listed as inhibitors; Q9F4F7; 310,000 compounds, 3.5% hits; Biochemical Sfp PPTase activity, qHTS; AID 1490; active = well fitted inhibition curve with a large enough effect; inconclusive = small, poorly fitted or top-dose-only effect, or another doubt; inactive = no such curve, though single readings can be large or run the other way;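 also: the enzyme is Sfp with the accession as filed and its product quenches rhodamine fluorescence; potency is read from the fitted curve at half-maximal effect; 0% = enzyme reaction without inhibitor and -100% = no enzyme wells; top concentration of the series not given in the record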
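Step 1, compound plus 15 nM Sfp-PPTase, 15 min, room temperature. Step 2, add rhodamine-CoA (5 uM) and BHQ-2-YbbR (12.5 uM). Step 3, read 525/598 nm fluorescence at 0 and 30 min.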
TRPML1 blocker: human mucolipin-1 channel inhibition. Q9GZU1. TRPML1-inducible cells, Ca2+ dye fluorescence, FDSS; stronger effect = lower value; inhibition of EC80 agonist-evoked calcium signal. activity change, negative = inhibition, % (test concentration not listed). 390,000 compounds, 0.02% hits. AID 624415; in the data active means activity change below about -50%; inconclusive means about -30% to -50%; inactive means above about -30%;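 also: stimulus is agonist 54-4 at its EC80 concentration; % is scaled to controls: 0 for no effect and ±100 for the full control effect; compound concentration not given in the record; the text of the record puts the active cut at -80%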
Target sequence (Q9GZU1 whole entry, looked up): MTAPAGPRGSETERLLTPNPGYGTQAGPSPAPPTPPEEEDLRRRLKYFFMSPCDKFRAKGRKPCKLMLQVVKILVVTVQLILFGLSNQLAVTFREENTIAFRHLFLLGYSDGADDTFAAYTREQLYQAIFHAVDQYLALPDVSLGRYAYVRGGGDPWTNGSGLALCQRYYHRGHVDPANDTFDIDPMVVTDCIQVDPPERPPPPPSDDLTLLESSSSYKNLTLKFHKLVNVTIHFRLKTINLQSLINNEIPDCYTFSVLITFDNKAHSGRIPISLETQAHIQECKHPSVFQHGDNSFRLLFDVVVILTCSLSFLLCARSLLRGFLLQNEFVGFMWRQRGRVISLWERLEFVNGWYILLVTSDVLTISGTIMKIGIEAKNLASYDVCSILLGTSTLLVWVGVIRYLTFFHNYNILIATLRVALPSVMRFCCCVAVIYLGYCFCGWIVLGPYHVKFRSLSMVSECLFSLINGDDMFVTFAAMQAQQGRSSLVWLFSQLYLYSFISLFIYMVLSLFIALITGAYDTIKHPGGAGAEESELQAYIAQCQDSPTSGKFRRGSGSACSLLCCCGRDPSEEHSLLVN
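Tet-induced TRPML1-DL cells loaded with Ca8 no-wash calcium dye were read kinetically on FDSS. Compound addition was followed by EC80 agonist 54-4 (4 uM final); inhibition was read over 110 s.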
Menin-MLL FL inh: displaces fluorescein MLL peptide from human menin; 290,000 tested, under 10 active; Fluorescence polarization, fluorescein-MLL peptide displacement from menin; FP activity change, % at 61.4 µM; inconclusive = falling polarisation curve, or a change in total fluorescence; inactive = total fluorescence flat and polarisation flat or rising; no compound was filed as active; the % refers to the polarisation; negative = inhibition;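 also: % of control where 0% means no effect; inhibitors lower the polarisation; unlabelled MLL peptide was the positive control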
gsp antag: antagonizes gsp, the McCune-Albright syndrome mutation. 340,000 compounds, 0.4% hits. gsp-mutant cells, cAMP HTRF, 30 min; control for the full effect not named in the record. Potency, µM (titrated, usually from 76.9 µM), for inactives: at the highest dose activity change, negative = inhibition, most hits filed as inhibitors. AID 624288; active = falling curve of any shape with a large fitted effect; inconclusive = falling curve, mostly with a smaller effect; inactive = flat or rising curve; cell line not stated here;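 also: intracellular cAMP measured with PDE inhibitor Ro 20-1724 present during compound exposure; potency is read from the fitted curve at half-maximal effect; % is scaled to controls: 0 for no effect and ±100 for the full control effect; nearly all actives have a fitted effect of over 65% in size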
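Cells, 2000/well, grown 16–24 h in DMEM 10% FBS with 0.5 mg/ml G418, then compounds plus […] (300 uM addition stock), 30 min at 37C. cAMP read by HTRF (cAMP-d2 and anti-cAMP antibody-K in lysis buffer) after 30 min RT.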
gsp ag: agonists of gsp mutant (McCune-Albright syndrome) | gsp mutant cells, cAMP HTRF, 30 min; control for the full effect not named in the record | 340,000 compounds, 0.13% hits | Potency, µM (series often up to 76.9 µM), for inactives: top-dose activation (cAMP increase), actives largely listed as activators | AID 624287; active = well fitted activation curve with a large enough effect; inconclusive = small, poorly fitted or top-dose-only effect, or another doubt; inactive = no such curve, though single readings can be large or run the other way; cell line not stated here;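 also: phosphodiesterase inhibitor Ro 20-1724 added with compounds to block cAMP breakdown; potency is read from the fitted curve at half-maximal effect; nearly all actives have a fitted effect of over 60% in size; about a fifth of the inactives were tested at one dose only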
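Cells stably selected in G418 were plated at 2000/well, grown 16-24 hr, then given compounds in DMSO with the PDE inhibitor […] (300 uM solution added) for 30 min at 37C; cAMP was read by HTRF.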
ClpP mod: qHTS Assay for Activators of ClpP; purified B. subtilis ClpP, FRET peptide cleavage, 20 min; Potency, µM (highest dose often 57.5 µM), for inactives: at the highest dose activity change, negative = active; 340,000 compounds, 1.9% hits; active = well fitted falling curve with a large enough effect; inconclusive = small, poorly fitted or top-dose-only effect; inactive = no such curve, though single readings can be large or run the other way; also: potency is read from the fitted curve at half-maximal effect; the source files actives as falling curves though it sought activators and does not explain the sign; nearly all actives have a fitted effect of over 65% in size; many hits overshoot -100%
Target sequence (P80244 whole entry, looked up): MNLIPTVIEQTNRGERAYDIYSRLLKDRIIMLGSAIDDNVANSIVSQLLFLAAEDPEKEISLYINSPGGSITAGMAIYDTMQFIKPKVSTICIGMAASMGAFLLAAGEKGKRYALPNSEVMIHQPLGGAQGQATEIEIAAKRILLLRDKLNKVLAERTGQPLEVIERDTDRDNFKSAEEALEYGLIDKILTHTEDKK
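Buffer: 100 mM Tris/HCl pH8, 100 mM KCl, 0.05% low protease BSA, 2.5% glycerol, 0.01% Tween-20. ClpP 10 microg/mL final; 20 min RT; delta FRET normalized to ADEP and DMSO controls.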
Active calls of the source: *; ? = inconclusive; / = not tested or not shown; [ ] = remark or other dose. Random draw from the library. About 4.9% of those tested had a hit in this group.

Below each compound – TRPV1 PAM | Sfp PPTase inh | TRPML1 blocker | Menin-MLL FL inh | gsp antag | gsp ag | ClpP mod
CC(NC(=O)NC(=O)c1ccc(Cl)cc1Cl)C1CC1 (stereo not drawn)
  -9 | 10% | -16 | -3.5 | -1% | 7%[15.4 µM] | /
CC1CCCCN1C(=O)Cn1cnc2c1c(=O)n(C)c(=O)n2C (stereo not drawn)
  4 | 11% | -12 | -3.4 | 6% | 3% | 1.1%
CCn1cc(CNC(=O)c2ccc(OC3CCN(Cc4ccccn4)CC3)cc2)cn1
  7 | 5% | -2 | 2.7 | -1% | -1%[15.4 µM] | /
CCn1c(CNc2ccc(Cl)cc2)nnc1SCc1ccc(C)cc1
  -21 | 10% | 20 | 0.2 | ? | -4% | 2.0%
Cc1ccc(C(=O)N2CCN(c3ccc([N+](=O)[O-])cc3)CC2)o1
  -16 | 8% | -3 | / | -6% | -2% | /
Fc1cccc(C2NN=C(c3ccccc3)S2)c1 (stereo not drawn)
  8 | 14% | -7 | -2.7 | -23% | 19% | /
COC(=O)c1cn(NC(=O)/C=C/c2cc(OC)ccc2OC)c(=O)c2ccccc12
  5 | -10% | 1 | 3.6 | -8% | -21% | 28µM*
O=C1CC(N2CCC(c3nc4ccccc4[nH]3)CC2)C(=O)N1c1cccc(F)c1 (stereo not drawn)
  13 | 11% | -10 | -0.5 | -10% | 22%[15.4 µM] | /
O=C(CSc1nnc(COc2ccc(Cl)cc2)o1)N1CCCC1
  -12 | 10% | -3 | -1.7 | -11% | -4%[15.4 µM] | 1.0%
CCOc1ccc(C(=O)N2CCN(c3ccccc3)CC2)cc1
  -7 | 12% | -2 | -1.6 | 3% | 14%[15.4 µM] | /
O=C(CC1C(=O)NCCN1Cc1ccc(F)c(F)c1)NCCCn1ccnc1 (stereo not drawn)
  5 | -4% | 33 | -17 | 2% | -24% | /
CCOC(=O)c1cccc(NC(=O)CCc2nnc3ccc(N4CCCCC4)nn23)c1
  8 | 3% | 50 | -1.8 | -10% | 35µM* | 31%
CCOC(=O)CSc1nnc(CNC(=O)c2cccs2)n1-c1cccc(C)c1
  -1 | 10% | 0 | 0.6 | 0% | ? | 0.3%
O=C(NCCNS(=O)(=O)c1ccc(Cl)cc1)c1cc(OCC(F)(F)F)ccc1OCC(F)(F)F
  -28 | 4% | 19 | -0.7 | -2% | 5% | -7.5%
COc1ccc(C2c3[nH]c4ccccc4c3CCN2C(=O)Cc2nonc2C)c(F)c1 (stereo not drawn)
  -1 | 4% | -2 | 6.3 | -15% | 5% | -7.5%
COC(=O)Cn1c(CN2CCC(Cc3ccccc3)CC2)nc2c1c(=O)n(C)c(=O)n2C
  -19 | 14% | 20 | 1.2 | ? | ? | -4.5%
CCN(CC(=O)NC(=O)Nc1ccccc1F)Cc1ccccc1
  -8 | / | 3 | / | -8% | -7% | -1.0%
CC(C)Sc1nc(N)nc(-c2cccs2)c1C#N
  -1 | 0% | -2 | -0.1 | -5% | ? | -3.8%
CCNC(=O)NC(=O)COC(=O)CCCc1nc2ccccc2s1
  -9 | -12% | -7 | 3.4 | -2% | 1%[15.4 µM] | 0.8%
Brc1cccc(OCCCN2CCCCCC2)c1
  -2 | -22% | -6 | 4.4 | 22% | -27% | /
CC1(C)CC(CCNC(=O)c2ccc(-n3cnnn3)cc2)CC(C)(C)N1
  4 | 13% | 27 | -2.3 | 9% | -2% | 0.8%
CS(=O)(=O)c1ccc(C(=O)N(Cc2ccccc2)c2ccccc2)cc1
  -32 | 5% | 13 | 0.5 | 4% | 6% | /
Nc1cc(=O)[nH]c(SCC(=O)Nc2nc3ccc([N+](=O)[O-])cc3s2)n1
  9 | -18% | / | -7.0 | / | / | /
Cc1ccc(NC(=O)CN2C(=O)S/C(=C\c3cc(C)n(-c4ccc(C(=O)O)cc4)c3C)C2=O)cc1
  1 | 8% | -14 | 3.9 | -28% | -12% | /
Cc1nc2ccc(NC(=O)c3cnc(Cl)c(Cl)c3)cc2s1
  4 | 17% | 17 | 3.5 | 8.9µM* | 15%[15.4 µM] | /
Cc1ccc(NC(=O)COc2ccc(N(C)S(=O)(=O)c3ccc(F)cc3)cc2)cc1
  -31 | / | -1 | / | -5% | -18% | 0.7%
CC(=O)Nc1ccc(OCC(O)Cn2c(C(C)C)nc3ccccc32)cc1 (stereo not drawn)
  12 | 22% | -1 | -7.9 | 1% | -32%[inhibitor] | -0.1%
CN(C)S(=O)(=O)c1ccc(C(=O)OCCN=C2NS(=O)(=O)c3ccccc32)cc1
  20 | 2% | -4 | -0.1 | -2% | 17% | 0.3%
CC1Cc2cc(S(=O)(=O)CCC(=O)NC3CCCCC3)ccc2N1C(=O)C1CC1 (stereo not drawn)
  ? | 9% | -25 | / | -1% | ? | 0.2%
CN(CCCCCNC(=O)/C=N/O)Cc1ccccc1
  -17 | -1% | / | 5.2 | / | / | /

The closing two compounds of the section above lead into the next.
Below each compound – TRPV1 PAM | Sfp PPTase inh | TRPML1 blocker | Menin-MLL FL inh | gsp antag | gsp ag | ClpP mod
CC1Cc2cc(S(=O)(=O)CCC(=O)NC3CCCCC3)ccc2N1C(=O)C1CC1 (stereo not drawn)
  ? | 9% | -25 | / | -1% | ? | 0.2%
CN(CCCCCNC(=O)/C=N/O)Cc1ccccc1
  -17 | -1% | / | 5.2 | / | / | /
O=C(NN=C1CCCC1)C1COc2ccccc2O1 (stereo not drawn)
  5 | 12% | 6 | -5.9 | 6% | -51%[inhibitor] | -0.3%
CC(C)CNC(=O)COC(=O)c1ccc([N+](=O)[O-])cc1Cl
  -1 | 4% | 16 | 8.3 | 15% | 7%[15.4 µM] | 1.8%
O=C(CNC(=O)c1ccccc1)NCC(=O)OCc1ccc(Cl)cc1
  5 | 26% | 0 | 5.0 | -5% | -1% | 1.8%
CCC(=O)CN(Cc1cc(OC)ccc1OC)S(=O)(=O)c1ccccc1Br
  / | / | 4 | / | -14% | / | -1.1%
CCOC(=O)c1cc(-c2cccs2)nc2c1c(C)nn2-c1ccccn1
  -4 | ? | 12 | 0.1 | ? | -22%[15.4 µM] | /
O=C(c1ccc(CSc2nc3ccncc3[nH]2)cc1)N1CCCCCC1
  10 | 23% | / | 7.1 | 7% | ? | 1.1%
Cc1cc(S(=O)(=O)N2CCOCC2)ccc1OCC(=O)Nc1cccc(C(F)(F)F)c1
  -2 | 9% | 1 | 0.0 | 4% | 21% | /
N#CCN1C(=O)C2CCCN2c2ccc(S(=O)(=O)N3CCOCC3)cc21 (stereo not drawn)
  -7 | ? | 6 | 3.1 | 16% | ? | /
O=C(Nc1ccccc1)C1CCN(C(=O)c2ccco2)CC1
  5 | 9% | 6 | / | -10% | 11%[15.4 µM] | /
Cc1ccc(NCc2nnc(SCC(=O)Nc3cccc(O)c3)n2CC2CCCO2)c(C)c1 (stereo not drawn)
  -4 | -10% | -6 | 5.4 | -2% | 1% | 0.3%
CCCN(CCC)C(=O)c1c(NC(=O)CC)sc2c1CCCCC2
  ? | 5% | -7 | -0.2 | 15% | -4% | 0.7%
CN(C(=O)c1ccco1)c1nc(-c2ccc(Cl)cc2)cs1
  0 | 24% | 14 | -1.6 | -13% | 4% | 29%
COc1cc2oc(=O)cc(-c3ccc(-c4ccc(C)cc4)cc3)c2c(OC)c1OC
  / | -4% | 2 | 0.0 | -3% | / | 3.1%
CC(=O)N1CCN(C(=O)c2ccc(S(=O)(=O)Nc3ccccc3Cl)cc2)CC1
  27 | / | -2 | / | -12% | 13%[15.4 µM] | /
COCCn1c(SCC(=O)c2ccccc2)nc2ccccc2c1=O
  0 | -10% | -2 | 8.2 | -15% | -15%[15.4 µM] | /
Cc1nc(CSc2nc3[nH]ncc3c(=O)n2-c2ccccc2)cs1
  5 | 5% | 38 | 1.2 | 12% | 3% | -1.0%
COc1ccc([C@H]2C=C(C(=O)O)O[C@@H](OCc3ccc(CO)cc3)C2)cc1
  -2 | 9% | 12 | -1.1 | 2% | / | ?
O=C(COc1ccc(/C=N/NS(=O)(=O)c2ccccc2)cc1)Nc1cccc(Cl)c1
  14 | 19% | -18 | 3.3 | -10% | -3% | 1.3%
COc1ccc(OC)c(N(CC(=O)N2CCC(C)CC2)S(=O)(=O)c2ccccc2)c1
  -29 | ? | -3 | 4.9 | -9% | 13% | 0.0%
COc1ccc(S(=O)(=O)N2CCN(S(=O)(=O)c3ccc(C(F)(F)F)cc3)CC2)cc1C
  -8 | 3% | 7 | 2.5 | 12% | -18%[15.4 µM] | ?
CC(=O)N1CCCc2cc(S(=O)(=O)CCC(=O)Nc3cccc(C)c3C)ccc21
  -10 | 8% | -3 | 0.0 | -6% | 1% | /
COc1ccc(COC(=O)c2cccc(S(=O)(=O)N3CCN(C(C)=O)CC3)c2)cc1F
  0 | / | -5 | / | -6% | -31%[inhibitor] | -30%
COc1ccc(CCNC(=O)Nc2cccs2)c(OC)c1
  -37 | -13% | -9 | 7.4 | -7% | 10% | 0.9%

Just TRPML1 blocker, gsp antag and Menin-MLL FL inh, for some of the entries so far:
SMILES | TRPML1 blocker | gsp antag | Menin-MLL FL inh
CC(=O)N1CCN(C(=O)c2ccc(S(=O)(=O)Nc3ccccc3Cl)cc2)CC1 | -2 | -12% | /
O=C(NN=C1CCCC1)C1COc2ccccc2O1 (stereo not drawn) | 6 | 6% | -5.9
O=C(Nc1ccccc1)C1CCN(C(=O)c2ccco2)CC1 | 6 | -10% | /
COc1ccc([C@H]2C=C(C(=O)O)O[C@@H](OCc3ccc(CO)cc3)C2)cc1 | 12 | 2% | -1.1
COc1ccc(COC(=O)c2cccc(S(=O)(=O)N3CCN(C(C)=O)CC3)c2)cc1F | -5 | -6% | /
N#CCN1C(=O)C2CCCN2c2ccc(S(=O)(=O)N3CCOCC3)cc21 (stereo not drawn) | 6 | 16% | 3.1
COCCn1c(SCC(=O)c2ccccc2)nc2ccccc2c1=O | -2 | -15% | 8.2

Entries above that bear a hit mark in gsp antag.
compound | Sfp PPTase inh | TRPML1 blocker | Menin-MLL FL inh | gsp antag | gsp ag
Cc1nc2ccc(NC(=O)c3cnc(Cl)c(Cl)c3)cc2s1 | 17% | 17 | 3.5 | 8.9µM* | 15%[15.4 µM]
